High-throughput results deposited in PubChem by Vanderbilt University.
GIRK2 act: activators of human GIRK2 potassium channels; G protein-activated inward rectifier potassium channel 2 (Homo sapiens), P48051; HEK293-GIRK2 thallium flux, Thallos fluorescence; calls only for hits at 25 µM; hit rate 0.05% among 63,000; AID 1259325, 2017;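 active = among the strongest 0.2% of first-round signals and kept after retests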;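 also: first round at about 10 µM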
Target sequence (P48051 whole entry, looked up): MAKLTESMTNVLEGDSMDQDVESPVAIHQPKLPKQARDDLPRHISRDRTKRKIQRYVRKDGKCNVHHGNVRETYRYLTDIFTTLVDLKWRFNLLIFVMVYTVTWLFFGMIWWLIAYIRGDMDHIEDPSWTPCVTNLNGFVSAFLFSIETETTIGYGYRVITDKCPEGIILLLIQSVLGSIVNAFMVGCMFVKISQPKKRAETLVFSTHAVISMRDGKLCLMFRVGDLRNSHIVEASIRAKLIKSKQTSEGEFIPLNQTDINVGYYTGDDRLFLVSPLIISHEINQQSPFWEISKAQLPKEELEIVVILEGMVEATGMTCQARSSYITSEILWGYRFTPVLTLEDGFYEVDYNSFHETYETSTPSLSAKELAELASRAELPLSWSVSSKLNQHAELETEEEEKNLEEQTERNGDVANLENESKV
Calls only; i = inactive. The list is partial; count on the stated rates, not on these rows.

A first look (4 entries):
SMILES	GIRK2 act
Cc1nnsc1C(=O)N1CCOCC1CN(C)C (centres undefined)	i
COc1cccc2cc(C(=O)C3=C(O)C(=O)N(CCCN(C)C)C3c3ccc(C)o3)oc12 (centres undefined)	i
CCN1CCCc2cc(CCNC(=O)C(=O)Nc3ccc(C)c(Cl)c3)ccc21	i
COc1ccc(OC)c(-c2cc(C(=O)N(Cc3ccsc3)Cc3ccco3)n(C)n2)c1	i

This part in full, from the start:
SMILES	GIRK2 act
Cc1nnsc1C(=O)N1CCOCC1CN(C)C (centres undefined)	i
COc1cccc2cc(C(=O)C3=C(O)C(=O)N(CCCN(C)C)C3c3ccc(C)o3)oc12 (centres undefined)	i
CCN1CCCc2cc(CCNC(=O)C(=O)Nc3ccc(C)c(Cl)c3)ccc21	i
COc1ccc(OC)c(-c2cc(C(=O)N(Cc3ccsc3)Cc3ccco3)n(C)n2)c1	i
CCCn1c(C(=O)NCCN2CCOCC2)cc2c(=O)n(C)c(=O)n(C)c21	i
CCN(CC)CCn1c(C)cn2c3c(=O)n(Cc4ccc(Cl)cc4)c(=O)n(C)c3nc12	i
CCCOc1ccc(S(=O)(=O)Nc2ccc3c(c2)N(S(=O)(=O)CC)CCC3)cc1	i
CC(Nc1ncc2c(=O)n(Cc3ccccc3F)c(=O)[nH]c2n1)c1ccccn1 (centres undefined)	i
C#CCn1c(=NC(=O)c2c(C)cnn2C)sc2cc3c(cc21)OCO3	i
CSc1ccc(/C=C2\C=C(CC(=O)NCc3cccc(C)c3)c3cc(F)ccc32)cc1	i
CCCCCCCC/C=C\CCCCCCCCNCCS(=O)(=O)O	i
O=C(CCCn1cccc1)Nc1ccc2c(c1)Cc1ccccc1-2	i
CCNC(=O)Nc1nnc(-c2ccco2)o1	i
COc1ccc(CNC(=O)NCC(C)(O)c2ccco2)cc1OC (centres undefined)	i
Cc1cc(C(=O)N(CCN2CCOCC2)c2nc3c(C)cc(Cl)cc3s2)c(C)o1	i
O=S1(=O)N=C(c2ccccc2)Nc2ccc(S(=O)(=O)N3CCOCC3)cc21	i
COCCNC(=O)C(=O)NCC1OCCCN1S(=O)(=O)c1ccc(OC)c(C)c1 (centres undefined)	i
O=C(CN1CCN(c2ccc3c(c2)OCO3)C1=O)Nc1ccc(OC(F)(F)F)cc1	i
CC(=O)Nc1ccc(S(=O)(=O)N2CCN(S(=O)(=O)N3CCC(C)CC3)CC2)cc1	i
Cc1nnsc1C(=O)N1CCN(c2c(C)nn(C3CCS(=O)(=O)C3)c2C)CC1 (centres undefined)	i
CC1(C)C[C@@H]1C(=O)N/C(=C\CCCCSC[C@H](N)C(=O)O)C(=O)O	i
Cc1ccc2c(Nc3ccc(S(C)(=O)=O)cc3)c(C(=O)N3CCCCCC3)cnc2n1	i
CN(C)C(CNC(=O)NCc1cccs1)c1cccn1C (centres undefined)	i
Cc1nnc(NC(=O)CSc2ncc(-c3cccc([N+](=O)[O-])c3)n2-c2ccc(F)cc2)s1	i
Cc1cccc2sc(OC3CN(S(=O)(=O)C4CC4)C3)nc12	i
O=C(NCCOc1ccc(-c2ccc(F)cc2)nn1)c1cc(-c2ccc(F)cc2)n[nH]1	i
Cn1cnc(S(=O)(=O)N(CCc2cccs2)C2CC2)c1	i
CC(=C\C(=O)O)/C=C(\C)CC(C)CCCCC(O)C(CO)C(=O)OC(CCCCC(C)C/C(C)=C/C(C)=C/C(=O)O)C(CO)C(=O)O (centres undefined)	i
CC(C)Oc1ccc(C(=O)NCc2cc(-c3ccco3)n(C)n2)cc1	i
Cc1ccc(C)c(C(=O)NCCC(O)C2CC2)c1 (centres undefined)	i
CC(=O)NC1=NN(C(C)=O)C2(S1)C(=O)N(Cc1ccc(C)cc1)c1c(C)cccc12 (centres undefined)	i
Cc1cccc(N2C(=O)N(c3cc(C)cc(C)c3)C3CS(=O)(=O)CC32)c1 (centres undefined)	i
O=C(C1CCCC1)N1CCC(Oc2cnccn2)CC1	i
C=CCn1c(=O)[nH]c2cc(C(=O)N3CCN(c4ccc(F)cc4)CC3)ccc2c1=O	i
O=C(CSCc1ccccc1)N1CCC(Oc2ccc(C(F)(F)F)cn2)CC1	i
Cc1cc(C)cc(N2C(=O)CSC23C(=O)N(CC(=O)NCc2ccco2)c2ccccc23)c1 (centres undefined)	i
CCc1ccccc1NC(=O)Cn1cnc2c(-c3cccc(C)c3)nsc2c1=O	i
OC(CNC1CCCC1)COc1ccc2ccccc2c1 (centres undefined)	i
Cc1cccc(C(=O)N2CCN(c3nc(C)cc(N4CCCCC4)n3)CC2)c1	i
O=C(NCc1ccc(F)cc1)c1snc(-c2ccccn2)c1NC(=O)C1CC1	i
Cc1noc(C)c1S(=O)(=O)N1CCC(Oc2nc3ccccc3s2)CC1	i
CC(C)CNC(=O)C(=O)NCCC(O)c1ccccc1 (centres undefined)	i
Cc1ccc2nc(NC(=O)C3CCN(c4ccc(-c5ccco5)nn4)CC3)sc2c1	i
NS(=O)(=O)c1ccc(CCNC(=O)c2coc(NC(=O)c3ccccc3)n2)cc1	i
Cn1c(=O)[nH]c(=O)c2c1nc1n2CCN1c1ccc(O)cc1	i

Part of the list above, as labelled records.
> Cc1cccc(N2C(=O)N(c3cc(C)cc(C)c3)C3CS(=O)(=O)CC32)c1 (centres undefined)
  GIRK2 act = i

> O=C(C1CCCC1)N1CCC(Oc2cnccn2)CC1
  GIRK2 act = i

> C=CCn1c(=O)[nH]c2cc(C(=O)N3CCN(c4ccc(F)cc4)CC3)ccc2c1=O
  GIRK2 act = i

(more compounds)
SMILES	GIRK2 act
Cc1cc(OCC(=O)NCc2ccc(Cl)cc2)nc(N2CCCC(C)C2)n1 (centres undefined)	i
COc1cccc(Oc2c(C(F)(F)F)oc3c4c(ccc3c2=O)OCN(C2CC2)C4)c1	i
CC(=O)N1CCN(C(=O)C23CC4(C)CC(C)(CC(C)(C4)C2)C3)CC1	i
COc1ccc(OCC(=O)Nc2nc(CN3CCc4ccccc4C3)cs2)cc1	i
O=C(NCC1(c2ccc(F)cc2)CCOCC1)Nc1cccc(C(F)(F)F)c1	i
COc1cc(C)c(C)cc1S(=O)(=O)Nc1ccc2c(c1)N(S(C)(=O)=O)CCC2	i
CSc1ncccc1C(=O)NCC1CCN(Cc2ccco2)CC1	i
O=C(NCc1ccc(F)cc1)C1CCN(c2nc3ccsc3c(=O)n2Cc2ccccc2)CC1	i
Cc1noc(C)c1CCC(=O)NCCc1ccncc1	i
O=C(CCc1csc2nc(C3CC3)cn12)NCc1ccc(OC(F)(F)F)cc1	i
COc1ccc(-c2ccc(=O)n(CCN3CCN(S(=O)(=O)c4ccc(Cl)s4)CC3)n2)cc1	i
CCOC(=O)Cc1csc(NC(=O)c2ccc(-n3nc(C)cc3C)nn2)n1	i
C=C(C)COc1ccc2c(=O)c(-c3ccc(OC)cc3)coc2c1	i
Cc1cc2c(=O)n(C)c(SCC(=O)NCCc3ccccc3)nc2s1	i
COc1ccccc1C(=O)Nc1oc2c(C)cccc2c(=O)c1-c1ccc2c(c1)OCO2	i

A different layout for some results above.
compound | GIRK2 act
COc1ccc(-c2ccc(=O)n(CCN3CCN(S(=O)(=O)c4ccc(Cl)s4)CC3)n2)cc1 | i
CCOC(=O)Cc1csc(NC(=O)c2ccc(-n3nc(C)cc3C)nn2)n1 | i
C=C(C)COc1ccc2c(=O)c(-c3ccc(OC)cc3)coc2c1 | i
Cc1cc2c(=O)n(C)c(SCC(=O)NCCc3ccccc3)nc2s1 | i
COc1ccccc1C(=O)Nc1oc2c(C)cccc2c(=O)c1-c1ccc2c(c1)OCO2 | i

The results go on.
SMILES	GIRK2 act
O=C(Nc1ccc(N2CCCS2(=O)=O)cc1)c1c(F)cccc1Cl	i
Cc1ccnc(Nc2cc(NCCNS(=O)(=O)c3c(C)noc3C)nc(C)n2)c1	i
C=CCNc1c([N+](=O)[O-])c(=O)n(-c2ccccc2)c2ccccc12	i
Cc1nnsc1C(=O)NCCCCN1CCCC1	i
CSCCC(C)(O)CNC(=O)C(=O)NCc1ccc2c(c1)OCO2 (centres undefined)	i
COc1cc(C)ccc1OCC(=O)Nc1cc(-n2ccc3ccccc32)ncn1	i
CCOc1ccc(C2c3c(oc4ccccc4c3=O)C(=O)N2C)cc1OC (centres undefined)	i
COc1ccc(C)cc1S(=O)(=O)N1CCc2nc(NC(=O)c3cc(C)on3)sc2C1	i
CN1CCN(c2cc(NC(=O)Cc3ccc(Cl)cc3)ncn2)CC1	i
Cc1cc(SCC(=O)Nc2ccccc2[N+](=O)[O-])n2nc(C)c(-c3ccccc3)c2n1	i
COc1ccc(Br)c(C(=O)Nc2ccc3c(c2)C(=O)NCC3)c1	i
COc1cccc(C(=O)Nc2ccc(-n3nnc(C(=O)NCC(F)(F)F)n3)cc2)c1	i
C=C1COC(=O)N1c1ccc(C)cc1	i
COc1ccc(-n2c(C)c(C)n3c4c(=O)n(CC(C)C)c(=O)n(C)c4nc23)cc1	i
CCC(C(=O)Nc1nc(CN2CCc3ccccc3C2)cs1)c1ccccc1 (centres undefined)	i
O=C(Nc1nc(-c2cc3ccccc3o2)cs1)c1ccc([N+](=O)[O-])s1	i
CC(C)c1cccc(NC(=O)C2CCN(c3c(C#N)cnc4ccc(F)cc34)CC2)c1	i
COCCn1c(C2CC(=O)N(c3ccccc3C)C2)nc2ccccc21 (centres undefined)	i
CC1Oc2ccccc2OC1C(=O)Nc1cc(N2CCCC2)ncn1 (centres undefined)	i
COc1cccc(COc2c[nH]c(C(=O)Nc3ccc(Cl)c(Cl)c3)cc2=O)c1	i
N#Cc1ccc(OC2CCN(C(=O)Nc3ccc(F)cc3)CC2)nc1	i
COc1ccc(Nc2cc(C)nc(NCCNC(=O)C(C)(C)C)n2)cc1	i
CCc1cc(CC)n(-c2nc3c(c(=O)n(CC(N)=O)c(=O)n3C)n2C)n1	i
CC(C)NC(=O)CSc1nnc(N2CCN(C(=O)c3ccc4c(c3)OCO4)CC2)s1	i
O=S(=O)(NCCC(O)c1ccccc1)c1cc(Cl)ccc1Cl (centres undefined)	i
CC(C)Oc1ccc(C(=O)Nc2ccc3c(c2)CCC(=O)N3Cc2ccccc2)cc1	i
CCOC(=O)c1c(NC(=O)c2ccc(S(=O)(=O)N3CC(C)OC(C)C3)cc2)sc2c1CCC2 (centres undefined)	i
Cc1c(O)ccc2c(CN3CCN(C)CC3)cc(=O)oc12	i
O=c1[nH]c(N2CCN(c3ccccc3)CC2)nc2c(-c3cccc(Cl)c3)csc12	i
COC(=O)c1ccc(NC(=O)CSc2nnc(C(C)C)c3cnn(-c4ccccc4OC)c23)cc1	i
CCc1cc2c(CN3CCN(Cc4ccc5c(c4)OCO5)CC3)cc(=O)oc2cc1O	i
CCOC(=O)NCCC(O)c1ccoc1 (centres undefined)	i
C[C@H](O)CNc1cc(-c2[nH]c3cccnc3c2-c2ccc(F)cc2)ccn1	i
Cn1cc(OCc2ccccc2)c(=O)cc1C(=O)NC1CCCC1	i
Cc1ccc2c(c1)NC(=O)c1cc(NC(=O)Nc3ccc4c(c3)OCO4)ccc1O2	i
O=S(=O)(c1cc(F)ccc1F)N1CCN(c2cc(-n3cccc3)ncn2)CC1	i
O=C(NCCc1ccc(F)cc1)c1ccc(Cn2cnc3ccccc32)o1	i
COc1ccc(Cl)cc1C(=O)Nc1ccc(-n2nnn(C)c2=O)cc1	i
COc1ccccc1N1CCN(c2cc(SCC(=O)Nc3c(C)cccc3C)ncn2)CC1	i
COc1cc(OC)cc(C(=O)N(C(=O)N2CCCCC2)c2ccccc2)c1	i
Cc1cccc(CN2N=NC3C(=O)N(c4ccccc4Cl)C(=O)C32)c1 (centres undefined)	i
COc1cccc(Oc2coc3cc(OC(=O)c4c(OC)cccc4OC)ccc3c2=O)c1	i
COc1ccc2c(c1)c(CC(=O)NCCO[N+](=O)[O-])cn2C(=O)c1ccc(Cl)cc1	i
COc1ccc(Cl)cc1C(=O)N1CC(c2nc(-c3cccc(C(F)(F)F)c3)no2)C1	i
O=C(Cn1c(=O)oc2ccc(Cl)cc21)NC1CCCCC1	i
COc1ccc(N2Cc3cc(Cl)cc(OC)c3OCC2=O)cc1Cl	i
CC(C)NC(=O)CSc1nc2cc3c(cc2c(=O)n1Cc1ccc(C(=O)NC(C)C)cc1)OCO3	i
CCC(=O)Nc1ccc2c(c1)CCN2C(=O)C1CCCC1	i
Cc1ccc(NC(=O)C(=O)NCC(C)(O)CCc2ccccc2)cc1Cl (centres undefined)	i
Cn1cc(C2=C(c3cn(C)c4ccc(N)cc34)C(=O)NC2=O)c2ccccc21	i
O=C(NCc1ccccc1)C(=O)NCC(O)c1ccc2c(c1)CCO2 (centres undefined)	i
O=C(Nc1ccccc1NC(=O)c1ccccc1Cl)Nc1ccccc1C(F)(F)F	i
COCC(=O)NCCn1ncc2c(N3CCN(c4ccc(F)cc4)CC3)ncnc21	i
O=C(Nc1ccc(-c2ccn[nH]2)cc1)c1c(F)cccc1F	i
Cc1ccc(COc2ccccc2-n2c(C)c(C)n3c4c(=O)n(C)c(=O)n(C)c4nc23)cc1	i
O=C(NCCc1c[nH]c2ccccc12)C1(c2cc(-c3ccccc3)on2)CC1	i
CNC(=O)NC(=O)CN1CCC(Cn2c(C)nc3ccccc32)CC1	i
CCOC(=O)NCC1(c2ccccc2)CCOCC1	i
COc1cccc(S(=O)(=O)NCc2ccc(C(=O)Nc3ccc4sc(C)nc4c3)cc2)c1	i
O=C(NCCCN1CCN(c2ccccc2)CC1)c1c(F)cccc1F	i

Carrying on:
SMILES	GIRK2 act
COc1cccc(N2CCCn3c2nc2c3c(=O)n(Cc3ccc(C)cc3)c(=O)n2C)c1	i
NC(=O)c1ccccc1OCC#CCNC(=O)c1ccc(=O)[nH]c1	i
O=S(=O)(c1ccc(Br)cc1)N1CCCC(COCc2ccccc2)C1 (centres undefined)	i
CCOc1ccc2c(=O)c(Oc3ccccc3OC)coc2c1	i
COc1nn(C)cc1C(=O)Nc1nnc(SCC(=O)NCCc2ccccc2)s1	i
